supercomplex z: supercomplex reporter luminescence per Hoechst cell count – Hoechst nuclei count (AID 1645838); z-score at 11 µM unless noted; hit rate 5% among 2,000; Cells, luminescence/Hoechst cell count ratio, supercomplex reporter; stronger effect = higher value;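 active means mean z-score of two plates above 1.96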;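 further: control cybrid cells; higher means more mitochondrial supercomplex formation; U2OS-based cells read after two days; 0 = mean of sample wells on the plate; doses worked out from stocks diluted about 900-fold with the highest of each compound shown; many of its hits are not listed in these tables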
supercomplex z cell count: also measured in supercomplex z; calls as there; cell count; measured here: cell number, Hoechst nuclei count;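 nuclei per well as mean of two plates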
Numbers without * were called inactive.

`Clc1nc(Cl)nc(Cl)n1` gave supercomplex z -0.118 and supercomplex z cell count 4798.
`CN1CCC(C(=O)c2cccc(NC(=O)c3c(F)cc(F)cc3F)n2)CC1` gave supercomplex z -0.167 and supercomplex z cell count 5054.
Screening O=C(NCC1CCOCC1)c1cnc(Nc2ccc(Cl)cc2Cl)nc1C(F)(F)F returned supercomplex z -0.00654 and supercomplex z cell count 4442.
For Fc1ccc(C(OCCN2CCN(CCCc3ccccc3)CC2)c2ccc(F)cc2)cc1 the results were supercomplex z -0.814 and supercomplex z cell count 2458.
For Cc1sc2c(c1C)C(c1ccc(Cl)cc1)=NC(CC(=O)OC(C)(C)C)c1nnc(C)n1-2 (stereo not given) the results were supercomplex z 5.69* and supercomplex z cell count 2864*.
Cc1sc2c(c1C)C(c1ccc(Cl)cc1)=NC(CC(N)=O)c1nnc(C)n1-2 (stereo not given) was read as supercomplex z 10.6* and supercomplex z cell count 2364*.
For C[C@]1(O)CC[C@@H]2[C@@H]3CCC4=CC(=O)CC[C@]4(C)[C@@]3(F)C(O)C[C@@]21C (stereo not given in full) the results were supercomplex z 0.271 and supercomplex z cell count 5000.
For O=c1[nH]c2ccccc2n1C1CCN(Cc2ccc(-c3[nH]c4cc5ncnc5cc4nc3-c3ccccc3)cc2)CC1 the results were supercomplex z -0.217 and supercomplex z cell count 4262.
Screening NC(=NCCCC(N)C(=O)O)N[N+](=O)[O-] (stereo not given) returned supercomplex z -0.00821 and supercomplex z cell count 4490.
For CC=Cc1cc(OC)c(OC)cc1OC the results were supercomplex z 0.239 and supercomplex z cell count 5251.

Molecules above with a carbonyl joined to an NH by a bond outside any ring:
`CN1CCC(C(=O)c2cccc(NC(=O)c3c(F)cc(F)cc3F)n2)CC1` gave supercomplex z -0.167 and supercomplex z cell count 5054.
Screening O=C(NCC1CCOCC1)c1cnc(Nc2ccc(Cl)cc2Cl)nc1C(F)(F)F returned supercomplex z -0.00654 and supercomplex z cell count 4442.
Cc1sc2c(c1C)C(c1ccc(Cl)cc1)=NC(CC(N)=O)c1nnc(C)n1-2 (stereo not given) was read as supercomplex z 10.6* and supercomplex z cell count 2364*.

Sorted by length of the SMILES (falling): part of the list above.
For O=c1[nH]c2ccccc2n1C1CCN(Cc2ccc(-c3[nH]c4cc5ncnc5cc4nc3-c3ccccc3)cc2)CC1 the results were supercomplex z -0.217 and supercomplex z cell count 4262.
Cc1sc2c(c1C)C(c1ccc(Cl)cc1)=NC(CC(N)=O)c1nnc(C)n1-2 (stereo not given) was read as supercomplex z 10.6* and supercomplex z cell count 2364*.
Screening NC(=NCCCC(N)C(=O)O)N[N+](=O)[O-] (stereo not given) returned supercomplex z -0.00821 and supercomplex z cell count 4490.

From PubChem BioAssay

The list is partial (hit frequency here may not be typical).
